Screens from PubChem BioAssay.
Autofluor counter: flagged as autofluorescent in microsphere protease counterscreen | fluorescence intensity (test concentration not listed) | 360,000 compounds, 3.1% hits | AID 624483 | compound autofluorescence counterscreen, microsphere flow cytometry; stronger effect = higher value;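 active means at least 3 SD above the mean of all compounds, about 16000 in these data; inconclusive means too few beads counted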;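 further: 100 nL of 1 mM stock went into each well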
ugtP null kill: kills S. aureus RN4220 lacking UgtP. growth inhibition, % (concentration not given with the values). S. aureus RN4220 ugtP deletion, OD600 growth, 16 h; some inactives read as strong as hits. AID 1259309. 330,000 compounds, 0.54% hits;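 active means z-score under -3 and OD600 up to 0.15 on both plates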;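 further: plate controls were untreated wells for no effect and antibiotic for full effect; wells of about 80 µL received 100 nL stock; the first replicate is given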
BJeLR lethal: kills HRASV12-expressing BJeLR cells; BJeLR (HRASV12) viability, CellTiter-Glo ATP luminescence, 48 h; reference of the scale not given here; inhibition, % (concentration not given with the values); 300,000 compounds, 0.17% hits;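 active means replicate mean above 50%; inconclusive means above 50% but judged a plate artefact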;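 further: 50 nL library stock added to about 25 µL; numbers are from one replicate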
PrP UTR inh: suppresses PrP 5' UTR mRNA reporter expression; cell-based PrP 5' UTR mRNA reporter, plate reader; inhibition, % (test concentration not listed); 340,000 compounds, 0.35% hits;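 active means every replicate at 50% or more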;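 further: 0 = median of the neutral control wells; tested in H4 reporter cells; numbers are from one replicate; inactives centre near -14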
Mtb hypoxia rep: reduces hypoxia-regulated biosensor signal in M. tuberculosis; M. tuberculosis hypoxia-regulated fluorescent reporter, fluorescence; fluorescence inhibition, % (concentration not given with the values); 300,000 compounds, 0.1% hits;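 active means 35 to 45% if threefold the growth effect, above 45% if 1.5-fold the growth effect; inactive means the rest, general growth blockers included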;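 further: wells of about 50 µL received 100 nL stock; 0% = vehicle wells and 100% = reference inhibitor wells; whole bacteria with a GFP reporter of the hypoxia response; strong numbers were not always called active; many hits fall short of the cut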
Sa RN4220 lethal: S. aureus RN4220 growth inhibition. AID 1259311. OD600, 16 h. inhibition, % (test concentration not listed). 330,000 compounds, 0.33% hits;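 active means z-score of -3 or lower and OD600 up to 0.18 on both plates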;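 further: plate controls were untreated cells for no effect and reference antibiotic for full effect; stock transfer was 100 nL into about 80 µL; one replicate is shown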
Mtb hypoxia rep growth: further read-out of Mtb hypoxia rep, marked with its call; growth inhibition, %; measured here: M. tuberculosis growth (absorbance);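 0% = vehicle and 100% = reference antibiotic; read after six days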
Starred values were filed as active, the others as inactive; ? = inconclusive; · = no result given.

SMILES	Autofluor counter	ugtP null kill	BJeLR lethal	PrP UTR inh	Mtb hypoxia rep	Mtb hypoxia rep growth	Sa RN4220 lethal
Cc1cccc(C)c1N(CC(O)Cn1c2ccccc2c2ccccc21)S(C)(=O)=O (stereo not drawn)	21877*	-17	-6	-5	5	10	-4.2
COC(=O)c1ccc(C(=O)OC)c(NC(=O)COC(=O)c2ccc(OC)c(OC)c2OC)c1	2218	-4	0	11	-7	1	3.9
COc1cc(NC(=O)Cn2cnc(S(=O)(=O)N3CCCCC3)c2)cc(OC)c1OC	6369	-4	-4	-1	-3	3	-2.0
CN(C)S(=O)(=O)c1ccc(C(=O)Nc2nc(-c3ccccc3)c(C(=O)c3ccccc3)s2)cc1	7240	-11	18	8	3	7	1.4
O=C(NCCc1nc(-c2ccccc2Cl)no1)c1ccccc1	4179	-3	-2	10	4	6	1.4
O=C(O)c1cccc(NC(=S)NN=Cc2ccccn2)c1	·	2	·	·	18	10	9.6
Cc1ccc(-c2nc(CS(=O)CC(=O)NC3CC3)c(C)o2)cc1 (stereo not drawn)	5185	-2	-1	-13	9	12	-2.5
Cc1cc(SCC(=O)Nc2ccc(O)cc2)n2nc(C)c(-c3ccccc3)c2n1	4141	7	-1	·	14	11	-0.2
Cc1ccc(N(C(C)C(=O)Nc2cccc(N(C)S(C)(=O)=O)c2)S(C)(=O)=O)cc1 (stereo not drawn)	4666	12	1	-30	5	-7	6.2
O=C(CCl)Nc1ccccc1Sc1ccc(Cl)cc1	20704*	-10	2	-20	22	21	-1.3
CN(C)S(=O)(=O)N(CC(=O)Nc1ccccc1C(F)(F)F)c1ccccc1	·	-8	·	·	6	18	-11
CCOC(=O)CCCSc1nnc(CCCCCN2C(=O)c3cccc4cccc(c34)C2=O)o1	2348	-8	-17	-27	24	30	9.3
Cc1cc2c(C)nc(N/N=C/c3ccccc3)nc2o1	6605	·	6	-15	·	·	·
O=C(N/N=C/C=C/c1ccccc1)c1n[nH]c2c1CCC2	2826	·	19	-42	·	·	·
Cc1ccc2nc(SCC(=O)Nc3ccccc3F)nc(=O)n2c1	?	3	9	-19	1	2	2.1
CC(=NN=C(N)SC1CC(=O)N(c2ccc(Cl)cc2)C1=O)c1cccs1 (stereo not drawn)	·	11	·	·	22	15	6.6
COc1ccc(C(=O)NCc2nnc(SCC(=O)Nc3nc4ccc(C)cc4s3)o2)cc1OC	1922	·	4	-13	·	·	·
CC(=NCc1ccco1)c1c(O)n(C2CCCCC2)c(=O)[nH]c1=O	15157	9	2	-6	2	6	6.2
CC(C)(C)C1CCC(OC(=O)c2ccncc2)CC1 (stereo not drawn)	2429	5	-2	-32	-8	8	10
COc1ccc(Cl)cc1N(CC(=O)Nc1ccccc1C(=O)N1CCOCC1)S(C)(=O)=O	4907	4	0	-18	6	1	4.9
O=C(CNC(=O)C1CCCCC1)OCc1cc(=O)oc2ccc3ccccc3c12	2523	7	6	-17	-7	-5	4.7
Cn1nc(C(=O)NCC2CCCO2)c2ccccc2c1=O (stereo not drawn)	9834	3	-7	20	-13	0	2.1
O=C(CNC(=O)c1cccc(Br)c1)NN=Cc1cn[nH]c1-c1ccccc1	·	6	·	·	-14	-1	0.0
CCOc1ccc(C(=O)NC2CCN(CC(=O)NCc3ccccc3)CC2)cc1	5529	5	-6	4	0	-2	4.5
Cc1cc(C=Nn2cnnc2)c(O)c([N+](=O)[O-])c1	·	2	·	·	14	8	6.6

The list goes on, starting with the last three of the part before.
SMILES	Autofluor counter	ugtP null kill	BJeLR lethal	PrP UTR inh	Mtb hypoxia rep	Mtb hypoxia rep growth	Sa RN4220 lethal
O=C(CNC(=O)c1cccc(Br)c1)NN=Cc1cn[nH]c1-c1ccccc1	·	6	·	·	-14	-1	0.0
CCOc1ccc(C(=O)NC2CCN(CC(=O)NCc3ccccc3)CC2)cc1	5529	5	-6	4	0	-2	4.5
Cc1cc(C=Nn2cnnc2)c(O)c([N+](=O)[O-])c1	·	2	·	·	14	8	6.6
CCOC(=O)C1=C(CC)Nc2ccccc2N=C1N	4502	1	9	-14	8	15	2.3
O=C(COC(=O)CNC(=O)c1ccccc1F)Nc1cccnc1Cl	3226	4	5	3	1	-10	4.1
COc1ccc2sc(N(CCCN(C)C)C(=O)c3ccc(S(=O)(=O)N(C)Cc4ccccc4)cc3)nc2c1	6430	-5	-2	-10	13	1	2.1
Cc1c(N=C(N)/N=C(\N)Nc2ccccc2)c(=O)n(-c2ccccc2)n1C	2063	·	0	-6	·	·	·
CN(C(=O)c1cccc(NC(=O)Cc2ccc(NC(=O)C3CCN(C(=O)c4ccccc4)CC3)cc2)c1)C1CCC1	3879	3	·	-20	-2	-1	-0.6
Cc1ccc(-c2csc(NN=Cc3ccco3)n2)c(C)c1	·	3	·	·	-8	1	9.2
CC(=O)Nc1cccc(NC(=O)CSc2nnc(Cc3cccn3C)n2CCc2ccccc2)c1	10997	0	-4	-6	-1	4	3.5
COc1cccc(CNCC(=O)N2C(C)CCCC2C)c1 (stereo not drawn)	11220	-1	-4	·	4	6	0.7
COc1ccc(-n2c(C)c(C(C)=O)c(C(C)=O)c2C)cc1OC	2951	2	3	7	5	6	6.1
Nn1c(SCC(=O)Nc2cccc(S(N)(=O)=O)c2)nnc1C1CC1	4376	4	2	-31	7	5	1.3
COc1cc(CN2CC(=O)N(c3ccccc3Cl)C2=S)cc(OC)c1OC	3069	11	2	-5	8	6	6.2
CNC(=O)c1[nH]cnc1C(=O)N[C@@H](CC(C)C)C(=O)OC(C)(C)C	3605	·	-1	-19	·	·	·
CC(=O)Nc1cccc(C(=O)N(CCc2ccccc2)Cc2ccccc2)c1	4544	-13	-6	-5	-13	-10	4.4
COC(=O)c1ccc(C(=O)N(C)C2CCCN(Cc3ccccc3F)C2)nc1 (stereo not drawn)	3677	0	-3	-41	-5	3	-1.0
Cc1ccc(-c2nc(CNC(=O)c3cc(C)on3)cs2)cc1	6806	10	-8	-22	13	1	0.3
CC(O)c1nc2ccccc2n1CCCCOc1ccccc1 (stereo not drawn)	3715	1	-13	-6	3	11	2.0
CC(C)C1COCCS(=O)(=O)N1Cc1ccccc1F (stereo not drawn)	·	0	·	·	6	-2	7.6
CC1=CC(C)C2(CO)COC(c3cccnc3)C1C2C (stereo not drawn)	2073	-5	7	-21	2	7	-1.8
CCN1CCCC1CNC(=O)Cn1cccc1C(=O)c1ccccc1 (stereo not drawn)	3828	-7	8	-11	5	2	-11
CN(Cc1cc(=O)n2ccsc2n1)C1CCCCC1	2112	6	0	-17	13	2	3.8
CCOc1ccc(CCNC(=O)/C=C/c2ccco2)cc1OCC	5635	1	2	-1	3	2	-0.4
Cc1cc(Cl)cc2c1NC(=O)[C@]21[C@@H]2C(=O)N(Cc3ccccc3)C(=O)[C@@H]2[C@@H]2CCCN21	3642	-18	-20	-2	5	5	3.0
O=C(CCCCCN1C(=O)c2ccccc2C1=O)NCc1ccco1	5995	0	-2	-5	·	·	-1.2
CCCCOc1ccc(N2C(=O)CC(N(CCc3ccccc3)C(=O)/C=C/C(=O)O)C2=O)cc1 (stereo not drawn)	2060	1	-10	-4	-8	1	-1.9
COc1ccc(N(CC(=O)N2CC=C(c3ccccc3)CC2)S(=O)(=O)c2c(C)noc2C)cc1	5857	6	·	-15	-7	6	25

A draw from above in order of formula weight, ascending.
SMILES	Autofluor counter	ugtP null kill	BJeLR lethal	PrP UTR inh	Mtb hypoxia rep	Mtb hypoxia rep growth	Sa RN4220 lethal
CC(C)C1COCCS(=O)(=O)N1Cc1ccccc1F (stereo not drawn)	·	0	·	·	6	-2	7.6
Cc1ccc(-c2nc(CNC(=O)c3cc(C)on3)cs2)cc1	6806	10	-8	-22	13	1	0.3
CNC(=O)c1[nH]cnc1C(=O)N[C@@H](CC(C)C)C(=O)OC(C)(C)C	3605	·	-1	-19	·	·	·
Cc1cc(Cl)cc2c1NC(=O)[C@]21[C@@H]2C(=O)N(Cc3ccccc3)C(=O)[C@@H]2[C@@H]2CCCN21	3642	-18	-20	-2	5	5	3.0
COc1ccc(N(CC(=O)N2CC=C(c3ccccc3)CC2)S(=O)(=O)c2c(C)noc2C)cc1	5857	6	·	-15	-7	6	25

(cont.)
SMILES	Autofluor counter	ugtP null kill	BJeLR lethal	PrP UTR inh	Mtb hypoxia rep	Mtb hypoxia rep growth	Sa RN4220 lethal
COc1cc(C2C3=C(CC(C)(C)CC3=O)Nc3c2c(=O)[nH]c(=O)n3Cc2ccccc2)ccc1O (stereo not drawn)	2134	-4	10	-4	-10	-8	-5.2
COc1ccc(NS(=O)(=O)c2c(C(=O)N3CCCCCC3)c(C)n(C)c2C)cc1OC	5294	2	7	-12	7	16	2.8
COc1ccc(C(=O)c2c(C(F)(F)F)oc3c2C(=O)c2ccccc2C3=O)cc1	2790	33	3	15	·	·	94*
COc1cc(/C=C2/C(=O)NN(c3cccc(F)c3)C2=O)ccc1OC(=O)c1ccco1	2414	2	-16	0	6	2	6.7
CC(=O)c1ccc(NC(=O)C(C)O/N=C(\N)c2ccccc2)cc1 (stereo not drawn)	?	3	·	4	2	4	2.6
Cc1c(NS(=O)(=O)c2cccc([N+](=O)[O-])c2)c(=O)n(-c2ccccc2)n1C	2898	16	-8	-34	7	5	2.4
N=c1c2c(ncn1CCCO)Oc1cc(O)ccc1C2c1ccccc1 (stereo not drawn)	4225	6	-13	-17	-1	7	1.6
COc1ccccc1CNC(=O)c1cc(-c2ccccc2)n(Cc2cc(C)no2)n1	2799	1	·	-5	-10	1	4.0
COC(=O)C(Cc1ccc(OC(=O)c2ccc(C(F)(F)F)cc2)cc1)N1Cc2ccccc2C1=O (stereo not drawn)	4665	-7	10	-33	·	·	-5.6
CCOC(=O)C1CCCN(CC(=O)Nc2c(C(=O)OC)[nH]c3ccc(C)cc23)C1 (stereo not drawn)	6184	-14	-10	-26	10	6	0.6
COc1ccc(CNc2ccc(C)cc2)cc1Br	3823	13	4	-56	7	6	2.8
O=C(CCN1CCCC1)c1cccs1	4639	7	1	-23	4	4	0.3
O=C(Cn1cnc2c(nnn2Cc2ccc(Cl)cc2)c1=O)N1CCN(c2ccccc2)CC1	6034	1	·	-12	11	7	-15
O=C(NCCC1=CCCCC1)C1CCCN(S(=O)(=O)c2cnc[nH]2)C1 (stereo not drawn)	5794	9	-5	2	·	·	4.9
CCC(C)Oc1ccccc1C1CC(=O)NC2=C1C(=O)CCC2 (stereo not drawn)	3362	-5	3	-1	·	·	-0.1
O=C(O)CC12CC3CC(C1)CC(n1ncc(NCc4ccc5c(c4)OCO5)c(Cl)c1=O)(C3)C2	·	4	-3	·	-14	-14	1.5
O=c1cc(-c2ccccc2)nc2nc[nH]n12	3184	3	-2	-18	0	0	-0.4
CCc1nnc(NC(=O)c2cc(OC)c(OC)cc2[N+](=O)[O-])s1	4262	-1	4	-29	16	7	1.5
Cc1cc(C)n2nc(SCC(=O)Nc3ccccc3)nc2n1	4384	3	-2	-19	5	-2	4.4
Cc1cc(C)nc(NC(=O)CSc2nn(-c3ccccc3)c(=S)s2)n1	3922	4	-2	-33	2	6	1.5
O=C(COC(=O)c1ccc(Br)cc1)NCc1ccccc1	2119	-2	2	-7	11	6	1.8
COc1ccc(NC(=O)COc2coc(CN3CCCc4ccccc43)cc2=O)cc1	4952	4	-2	-6	-2	-17	-0.5
CSc1nsc(SCC(=O)Nc2ccc(C(N)=O)cc2)n1	4851	2	4	-16	11	-6	-1.2

Another view of 3 compounds above:
Every second line gives: Autofluor counter	ugtP null kill	BJeLR lethal	PrP UTR inh	Mtb hypoxia rep	Mtb hypoxia rep growth	Sa RN4220 lethal
> Cc1cc(C)n2nc(SCC(=O)Nc3ccccc3)nc2n1
    4384	3	-2	-19	5	-2	4.4
> O=C(NCCC1=CCCCC1)C1CCCN(S(=O)(=O)c2cnc[nH]2)C1 (stereo not drawn)
    5794	9	-5	2	·	·	4.9
> COc1ccc(CNc2ccc(C)cc2)cc1Br
    3823	13	4	-56	7	6	2.8
